Bioassay records (PubChem)
CapD inh: blocks the Bacillus anthracis CapD enzyme; purified CapD enzyme, fluorescence intensity read-out; stronger effect = lower value; some hits fall short of the stated cut; z-score (test concentration not listed); actives 0.23% (n = 140,000);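 active = z-score under -4 in either of two replicates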;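 also: stock transfer was 100 nL into about 40 µL; score is relative to mean and spread of the plate; one replicate is shown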
AID504770: E. coli YBA685 growth inhibition, screen for V. cholerae RctB inhibitors | actives 0.27% (n = 130,000) | AID 504770 | E. coli YBA685 rctB-dependent plasmid, OD600 growth, 3 h; stronger effect = lower value | z-score (concentration not given with the values);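 active = z-score under -2 on both plates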;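 also: wells of about 30 µL received 100 nL stock; score is relative to mean and SD of the test wells; the first replicate is given; strong numbers were not always called active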
* hit, by the source's call; i = inactive; / = no result given.

The line under a structure holds: CapD inh	AID504770
COc1cccc(-c2nnc(-c3ccc(C)o3)o2)c1
→ /	-1
CCOc1ccccc1N(C)C(=O)Cc1noc2ccccc12
→ -0.17	-0.1
O=c1c(Cl)c(N2CCCCC2)cnn1-c1ccccc1
→ 1.6	-0.5
CSc1nc(Oc2ccc3ccccc3c2)c2cnn(-c3ccc(C)cc3)c2n1
→ -0.3	/
COc1cc(OC)cc(N2CCN(C(=O)OCC3CCCN(Cc4cc(OC)ccc4F)C3)CC2)c1 (centres undefined)
→ -0.23	/
COc1cccc(C(=O)Nc2cccc(-c3nc4ncccc4o3)c2)c1
→ i	-1.4
O=C(CN(Cc1ccccc1)S(=O)(=O)c1ccccc1)NC1=NCCS1
→ /	-0.6
CCOC(=O)c1ccccc1NC(=O)c1sc2ncn(CC(=O)Nc3ccccc3OC)c(=O)c2c1C
→ -0.7	/
CCOc1ccsc1C(=O)OC
→ -0.12	/
COc1ccc(C(=O)O)cc1S(=O)(=O)N(C)c1ccccc1
→ 0.71	0.2
O=C(NCc1ccccc1)C1C2CCCCC21 (centres undefined)
→ 0.2	0.7
CSc1cccc(NS(=O)(=O)c2ccc3[nH]cc(C(=O)N(C)CCC#N)c(=O)c3c2)c1
→ 5.7	-0.5
CCN1CCN(C(c2cccs2)C(C)NC(=O)c2ccc(N(C)C)cc2)CC1 (centres undefined)
→ -0.21	-1.4
CCN1CCN(CCNC(=O)c2ccc(CS(=O)c3ccccc3C)o2)CC1 (centres undefined)
→ 0.11	0.25
Cn1nc(C(F)(F)F)c(-c2ccc(Br)cc2)c1NC(=O)c1ccco1
→ 0.36	-0.35
CC(=O)N1CCN(C(=O)c2cn(-c3ccccc3)nc2-c2ccc(C)cc2)CC1
→ 0.74	-0.3
O=C(O)CC(Sc1cccs1)C(=O)O (centres undefined)
→ 0.33	-0.35
Cc1ccc(CSCC(=O)Nc2ccccc2)cc1
→ -0.08	-0.4
O=C1S/C(=C/c2ccc(F)cc2)C(=O)N1CN1CCCCC1
→ -1.4	-0.2
CCOC(=O)C(C)Oc1ccc2c(=O)c(-c3csc(C)n3)coc2c1 (centres undefined)
→ 2.3	-0.5
COc1ccccc1N1CCN(CC#N)CC1
→ -0.88	-0.8
O=C(O)/C=C/c1ccc(S(=O)(=O)Nc2cccc(C(=O)O)c2)cc1
→ 0.57	0.35
COc1ccc(NC(=O)C2CCCCN2/N=C/c2ccc(OC)c(OCC(C)C)c2)cc1OC (centres undefined)
→ 0.045	-1
Cc1cccc(-c2nc(NCc3ccc4c(c3)OCO4)c3ccccc3n2)c1
→ 2.3	/
C=CCN1C(=O)SC(CC(=O)Nc2ccccc2)C1=O (centres undefined)
→ /	0.05
O=C1/C(=C/c2ccc(-c3ccc([N+](=O)[O-])cc3)o2)C=C(c2ccccc2)N1c1ccccc1Cl
→ -1.3	/
Cc1ccc2c(c1)/C(=C/c1ccc3c(c1)OCO3)c1cccnc1-2
→ 5.5	/
COC(=O)C1C(=O)NC(SCc2ccccc2Cl)=C(C#N)C1c1ccc(C)cc1 (centres undefined)
→ -0.37	1.8
Cc1csc2c(N(C)C)ncnc12
→ -0.84	-0.95
O=C(O)c1ccc(C(=O)O)s1
→ -0.76	-1.4
CC(=O)N1Cc2ccccc2CC1C(=O)OCc1ccc(C#N)cc1 (centres undefined)
→ /	-0.25
Cc1ccc(C(=O)N2N=C(c3ccc(Br)cc3)CC2c2ccco2)cc1 (centres undefined)
→ -0.03	/
FC(F)(F)C1(C(F)(F)F)N=C(c2ccncc2)OC(N2CCCCC2)=N1
→ -0.73	/
C=CCC(c1ccco1)N(C(C)=O)c1ccccc1 (centres undefined)
→ -0.29	-0.4
O=C(CC(c1ccccc1)(c1ccccc1)c1ccccc1)N1CCN(C(c2ccc(F)cc2)c2ccc(F)cc2)CC1
→ 0.23	/
Cc1ccc(N(C)S(=O)(=O)c2ccc3[nH]cc(C(=O)N4CCN(c5ccccc5)CC4)c(=O)c3c2)cc1C
→ -0.53	/
CCOC(=O)c1sc2nc(SCC(=O)O)n(Cc3ccccc3)c(=O)c2c1C
→ 2.7	/
Cc1nc(SCC(=O)Nc2c(C)cccc2C)c2c3c(sc2n1)CCC3
→ 0.5	/
COc1cc(C2C(N3C(=O)c4ccccc4C3=O)C(=O)N2c2ccc(C)c(F)c2)cc(OC)c1OC (centres undefined)
→ -0.27	/
Cc1cc(N2CCN(C)CC2)nc2ccc(NC(=O)C3CCC(C(C)(C)C)CC3)cc12 (centres undefined)
→ 74	0.2
O=C(CC1OC(=O)c2ccccc21)N/N=C/c1c[nH]c2ccccc12 (centres undefined)
→ -1.4	/
CS(=O)(=O)c1ccc(-n2cc(-c3ccccc3NC(=O)c3ccco3)cn2)cc1
→ -0.18	/
N#Cc1c(SCc2ccccc2Cl)nc2c(c1C(F)(F)F)CCc1occc1-2
→ 1.3	0
O=C(O)C1c2ccccc2CCN1S(=O)(=O)c1cccc2nsnc12 (centres undefined)
→ -0.33	/
CN(C)C(=O)COc1ncnc2ccc(Br)cc12
→ /	1.1
C=CCSc1nc2ccc(N=Cc3cc(Cl)ccc3O)cc2s1
→ 0.11	0.15
O=C(Nc1cccc(C(F)(F)F)c1)c1ccc2cnccc2n1
→ -0.47	/
c1cc(-c2nc3cc(Cc4ccc5oc(-c6ccncc6)nc5c4)ccc3o2)ccn1
→ 0.42	0.1
COC(=O)c1ccc(NCC(=O)c2ccc(OC)cc2)cc1
→ -0.14	2.1
S=C1NCN(Cc2ccccc2)CN1
→ 0.44	/
O=C(CSc1nncc2ccccc12)N1CCOCC1
→ 0.75	1.2
COc1ccc(-c2[nH]nc3c2C(c2ccccc2OC(=O)N2CCOCC2)C(C#N)=C(N)O3)cc1 (centres undefined)
→ 0.075	/
CCN(CC)c1ccc(CN2CCc3ccccc3C2)cc1
→ 0.43	0.4
Cc1nnc(-c2ccccc2)[nH]c1=O
→ 0.12	1.1
CCOc1ccc2c(c1)sc(=NC(=O)CN1C(=O)CCC1=O)n2C
→ /	-0.65
O=C(NCCSCc1ccco1)c1ccc2c(c1)S(=O)(=O)c1ccccc1C2=O
→ /	0.3
COc1ccc(Cc2nnc3c4cnn(-c5ccc(C)cc5)c4ncn23)cc1
→ 1.7	2
CCOc1ccc(-n2cnnn2)cc1S(=O)(=O)N1CCCCC1
→ -0.075	-0.45
Nc1ccccc1SCc1ccccc1
→ /	-1.1
COc1ccc(C2Nc3ccc4ccccc4c3C3=C2C(=O)CC(C)(C)C3)cc1OC (centres undefined)
→ -0.23	/

(cont.)
The line under a structure holds: CapD inh	AID504770
CC(C)(C)c1ccc(NC(=O)CSc2ccccn2)cc1
→ 0.23	-0.6
COC(=O)c1csc(S(=O)(=O)N2CCCC2)c1OC
→ 0.24	0.35
CCCc1cc(=O)oc2n[nH]c(C)c12
→ 0.94	0.95
NC(=O)C[n+]1ccc(/C=N/O)cc1
→ -0.025	-0.7
C=CCN1C(=O)C(=O)/C(=C(\O)c2ccccc2)C1c1ccc(OC)cc1 (centres undefined)
→ -3.1	-0.2
O=S(=O)(c1ccc(Br)cc1)N(Cl)Cl
→ 0.46	-0.65
COc1cc2c(cc1OC)C1=C(C#N)CN(C3CCCCC3)CN1CC2
→ /	-0.15
COCCN(C(=O)c1cc2ccccc2o1)C1(C(=O)Nc2ccccc2)CCN(C(C)C)CC1
→ /	1.2
N#Cc1ccccc1CS(=O)(=O)N1CCN(S(=O)(=O)/C=C/c2ccccc2)CC1
→ /	0.7
CN(C)c1ccc(/C=C2/Oc3c(ccc(O)c3O)C2=O)cc1
→ -3.4	1.6
CCOc1ccc(C(=O)NCCSc2c[nH]c3ccccc23)cc1
→ -0.15	2.5
Cn1nc(C(F)(F)F)c(/C=N/OC(=O)CCl)c1Sc1ccccc1
→ 1.7	/
CCNC(=S)N1CCN(Cc2ccccc2)CC1
→ /	1
CCCc1cc(=O)[nH]c(Nc2ccc(CC)cc2)n1
→ 1.9	0.55
CC(C)=C=CCC(C)O (centres undefined)
→ /	2
O=S(=O)(Cc1ccccc1)N(Cc1ccco1)CC1CCCO1 (centres undefined)
→ -1.2	/
Cc1nc(SCC(=O)Nc2ccc(S(=O)(=O)N3CCOCC3)cc2)n(C2CCCCC2)c1C
→ /	-0.15
Cc1ccc(N2C(=O)C3C(C2=O)N2CCCN2C3c2ccccc2)cc1 (centres undefined)
→ 0.22	/
CCN(CC)c1ccc2cc(-c3nnc(Nc4ccc(C#N)cc4)s3)c(=O)oc2c1
→ 0.62	/
O=C1C(c2ccccc2)=C(O)c2ccccc21
→ -0.21	/
N#CC1=C(SCC(=O)Nc2ccccc2C(F)(F)F)NC2=C(C(=O)CCC2)C1c1ccco1 (centres undefined)
→ 3.5	-0.85
CCN(c1ccccc1)S(=O)(=O)c1ccc2c(c1)OCCO2
→ -0.24	-0.35
COC(=O)c1noc(C(=O)OC)c1OCC(=O)c1cc(C)n(Cc2ccccc2Cl)c1C
→ /	0.15
COC(=O)c1sc(N)c(C(=O)OC)c1C
→ /	0.1
O=C(Nc1cccc(Cl)c1)N1CCC(n2nnc3cc(F)ccc32)CC1
→ /	0.45
Cc1nc2nc(-c3ccccc3)c(-c3ccccc3)n2nc1C
→ 47	/
O=C(CSCCOc1ccccc1)N1CCCC1
→ 0.33	1.5
CCn1c2ccccc2c2cc(/C=N/NC(=O)CC3Sc4ccccc4NC3=O)ccc21 (centres undefined)
→ 43	/
N/C(CSc1nc(SC/C(N)=N\O)ns1)=N\O
→ 0.32	0.7
O=C(N/N=C/c1ccc2c(c1)OCCO2)c1ccccc1CCc1ccccc1
→ -1	/

6 entries picked at random from the list so far, as already listed:
The line under a structure holds: CapD inh	AID504770
C=CCN1C(=O)C(=O)/C(=C(\O)c2ccccc2)C1c1ccc(OC)cc1 (centres undefined)
→ -3.1	-0.2
N#Cc1ccccc1CS(=O)(=O)N1CCN(S(=O)(=O)/C=C/c2ccccc2)CC1
→ /	0.7
CC(C)=C=CCC(C)O (centres undefined)
→ /	2
CN(C)c1ccc(/C=C2/Oc3c(ccc(O)c3O)C2=O)cc1
→ -3.4	1.6
O=C(CSCCOc1ccccc1)N1CCCC1
→ 0.33	1.5
Cc1ccc(N2C(=O)C3C(C2=O)N2CCCN2C3c2ccccc2)cc1 (centres undefined)
→ 0.22	/

An excerpt of these results, field by field.
COC(=O)c1sc(N)c(C(=O)OC)c1C
  CapD inh = /	AID504770 = 0.1

O=C(Nc1cccc(Cl)c1)N1CCC(n2nnc3cc(F)ccc32)CC1
  CapD inh = /	AID504770 = 0.45

Cc1nc2nc(-c3ccccc3)c(-c3ccccc3)n2nc1C
  CapD inh = 47	AID504770 = /

O=C(CSCCOc1ccccc1)N1CCCC1
  CapD inh = 0.33	AID504770 = 1.5

(continued)
SMILES,CapD inh,AID504770
CC(=O)Nc1ccc(-c2csc(Nc3ccccc3C)n2)cc1,-0.19,-0.85
Cc1ccc(CNC(=O)C2CCC(CNc3nc(=S)[nH]c4ccccc34)CC2)cc1 (centres undefined),-2.8,0.25
CNC(=S)N(C)CC(=O)Nc1c(Cl)cccc1Cl,/,-0.15
COC(=O)c1cc(-c2cncnc2-c2ccc(OC)c(C)c2O)c(C)o1,-0.78,-0.15
CCOC(=O)c1noc(N)c1C#N,-0.66,0.6
COc1ccc(-c2cc(C(=O)NCc3ccccc3)no2)cc1,-0.51,0.6
COc1ccc(NC(=O)C2C3NC(=S)NC2(C)Oc2ccccc23)cc1 (centres undefined),-0.55,-1.5
NC(=O)CN1C(=O)c2ccccc2S1(=O)=O,0.14,/
O=C1c2ccccc2C(NCCc2ccccc2)N1CCc1ccccc1 (centres undefined),0.32,0.45
O=C(NC12CC3CC(CC(C3)C1)C2)C1=COCCO1,-0.3,-0.25
Cc1cc(C(=O)OCC(=O)C(C)(C)C)c2ccccc2n1,/,-0.4
Cc1cccc(Cn2nc(C(C)(C)C)cc2C(=O)N2CCOCC2)c1,-1.4,1.7
CCCCCCCCCC(=O)n1c2ccc(F)cc2c2nc3ccccc3nc21,0.16,/
Cc1ccc(C(=O)c2nsc(Cl)c2Cl)cc1,0.15,-0.45
c1ccc2c(c1)CC1(CCCCC1)n1nnnc1-2,/,2
CC(C)NCC(O)COc1c(F)cc(Br)cc1F (centres undefined),-0.5,-0.1
CCCn1c(NC(=O)CCNC(C)=O)nc2ccccc21,/,1.3
CC(NC(=O)c1cn(-c2ccc(F)cc2)nn1)c1cccs1 (centres undefined),0.23,-0.2
COC(=O)CSc1cc(C(F)(F)F)nc2c(C(=O)OC)scc12,12,-0.15
CCCOc1ccc(-c2[nH]ncc2Oc2ccccc2)c(O)c1,-0.39,-0.25
Cc1nc(C)c(C(=O)NCCC(c2ccccc2)c2ccccc2)o1,/,0.05
Cc1c(-c2ccc(Br)cc2)c(=O)oc2ccccc12,24,-0.35
CCOC(=O)C1=CC2(SC=C(C(=O)OCC)S2)C2=C(S1)C(C)(C)N(C(C)=O)c1ccc(OCC)cc12 (centres undefined),1.2,/
O=C(Cc1ccccc1)N1N=C(c2cccc(Br)c2)CC1(O)C(F)(F)F (centres undefined),-0.17,/
c1ccc(Cn2c(CN3CCOCC3)nc3ccccc32)cc1,/,-0.65
O=C(O)c1cc2ccc(Br)cc2o1,-0.74,-0.95
Cn1c(CCC(=O)Nc2ccc(N3CCOCC3)cc2)nc(=O)c2ccccc21,/,0
CNCc1sccc1C,/,-0.75
CCC(=O)Nc1cccc(NC(=O)c2cccs2)c1,/,-0.55
FC(F)(F)c1cccc(N=Cc2nc(-c3ccccc3)[nH]c2Cl)c1,-1.9,/
c1coc(C2Nc3c(ccc4ccccc34)C3OCCC23)c1 (centres undefined),2.4,0.35
Cc1cc(C(=O)OCC(=O)NC2CCCC2)c(C)n1-c1ccccc1,-0.25,-0.75
Cc1cc(OCc2cccc(C(F)(F)F)c2)c2c3c(c(=O)oc2c1)CCC3,-0.57,1.7

Some of the compounds tested, so the mix of outcomes need not match the whole.
